Screening data as filed in PubChem BioAssay.
PINK1 expr mod – PINK1 expression modulation. hit rate 0.2% among 410,000. AID 624263. PINK1 immunofluorescence, high-content cytometry, 24 h. Potency, µM (highest dose often 76.6 µM), for inactives: top-dose activation (PINK1 increase), most hits filed as activators; active = well fitted activation curve with a large enough effect; inconclusive = small, poorly fitted or top-dose-only effect; inactive = flat fitted curve, though single readings scatter; cell line not stated here;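 further: potency means the concentration at half of the fitted maximal effect; % of control where 0% means no effect; nearly all actives have a fitted effect of over 65% in size; a mitochondrial uncoupler was the plate control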
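PINK1 protein, normally rapidly degraded, was detected by immunofluorescence after 24 hour compound treatment of a stable cell line. Titration data (5 concentrations) came from laser-scanning cytometry, with CCCP-treated wells as controls.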
Sfp PPTase inh – inhibitors of Bacillus subtilis Sfp phosphopantetheinyl transferase | Biochemical Sfp PPTase activity, qHTS | Potency, µM, inactives show max response, negative = inhibition, actives largely listed as inhibitors | hit rate 3.5% among 310,000; active means well fitted inhibition curve with a large enough effect; inconclusive means small, poorly fitted or top-dose-only effect, or another doubt; inactive means no such curve, though single readings can be large or run the other way;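 further: the enzyme is Sfp with the accession as filed and its product quenches rhodamine fluorescence; potency means the concentration at half of the fitted maximal effect; 0% = enzyme reaction without inhibitor and -100% = no enzyme wells; top concentration of the series not given in the record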
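Fluorescence-quenching assay with 15 nM Sfp, 5 uM rhodamine-CoA and 12.5 uM BHQ-2-labelled ybbR peptide in pH 7.6 Hepes/MgCl2 buffer. Enzyme was pre-incubated with compound for 15 min at room temperature. Rate was taken from the 30-min fluorescence change (525/598 nm).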
TRPV1 potentiator – enhances activation of the human vanilloid receptor TRPV1 | TRPV1-expressing cells, Fluo-8 calcium influx, capsaicin EC20 potentiation; host cell line not named in the record; control for the full effect not named in the record | Q8NER1 | hit rate 0.02% among 320,000 | potentiation, % at 8.33 µM; active means potentiation above 80%; inconclusive means 30% to 80%; inactive means below 30%; further: 0% is about no effect
Target sequence (Q8NER1 whole entry, looked up): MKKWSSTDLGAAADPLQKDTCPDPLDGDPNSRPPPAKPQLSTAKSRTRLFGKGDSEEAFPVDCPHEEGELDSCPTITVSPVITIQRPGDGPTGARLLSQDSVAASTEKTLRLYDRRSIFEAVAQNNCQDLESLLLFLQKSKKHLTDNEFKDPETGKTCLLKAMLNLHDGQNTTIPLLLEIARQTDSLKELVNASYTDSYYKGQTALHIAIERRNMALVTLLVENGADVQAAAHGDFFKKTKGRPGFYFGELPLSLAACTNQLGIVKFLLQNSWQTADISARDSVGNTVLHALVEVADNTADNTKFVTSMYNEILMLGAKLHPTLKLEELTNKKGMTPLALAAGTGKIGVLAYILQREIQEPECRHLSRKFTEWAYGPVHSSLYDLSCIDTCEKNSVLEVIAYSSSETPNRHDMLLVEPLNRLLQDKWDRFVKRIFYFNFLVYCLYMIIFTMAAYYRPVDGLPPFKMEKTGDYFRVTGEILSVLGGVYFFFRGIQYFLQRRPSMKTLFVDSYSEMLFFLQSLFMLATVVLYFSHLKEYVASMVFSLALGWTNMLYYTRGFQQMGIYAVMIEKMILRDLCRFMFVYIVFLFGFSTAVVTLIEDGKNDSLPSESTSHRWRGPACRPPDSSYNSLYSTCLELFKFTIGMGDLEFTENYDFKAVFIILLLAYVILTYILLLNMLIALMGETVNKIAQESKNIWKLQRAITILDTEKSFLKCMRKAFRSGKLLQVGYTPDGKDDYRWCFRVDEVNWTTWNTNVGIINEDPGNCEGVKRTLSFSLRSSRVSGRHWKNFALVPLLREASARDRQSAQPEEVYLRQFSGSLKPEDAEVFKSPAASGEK
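TRPV1-expressing cells were cultured overnight at 35.5C and loaded with Fluo-8 calcium dye for 40 to 90 min at room temperature. After a 10 s baseline, compound was added and calcium influx was read kinetically for 3 min (ex 480/em 520 nm).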
TRPML1 ag – activates the human TRPML1 channel. Q9GZU1. TRPML1-expressing cells, Ca2+ dye fluorescence, FDSS; host cell line not named in the record; reference of the full effect not given here. activation, % (no concentration beside the values). hit rate 0.12% among 410,000; in the data active = activation above about 50%; inconclusive = about 30% to 50%; inactive = below about 30%; further: 0% is about no effect; the text of the record puts the active cut at 80%
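Kinetic FDSS Ca2+ read in Tet-induced TRPML1-DL cells (ABD Ca8 dye plus quencher, 45-90 min RT loading): baseline, then compound, then 110 s agonist window; EC80 agonist 54-4 at 4uM final added afterwards for a 110 s antagonist window.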
TRPML1 blocker – inhibitors of human TRPML1 channel. Q9GZU1. activity change, negative = inhibition, % (concentration not given with the values). AID 624415. TRPML1-inducible cells, Ca2+ dye fluorescence, FDSS; hits give low values; inhibition of EC80 agonist-evoked calcium signal. hit rate 0.02% among 390,000; in the data active means activity change below about -50%; inconclusive means about -30% to -50%; inactive means above about -30%;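 further: stimulus is agonist 54-4 at its EC80 concentration; on the % scale 0 is the no-effect control and ±100 the full control effect; compound concentration not given in the record; the text of the record puts the active cut at -80%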
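TRPML1-DL cells, Tet-induced overnight (~16 h, 37 °C) at 1,500 cells/well, were loaded with Ca8 no-wash dye plus quencher for 45-90 min at room temperature. Compounds were pinned during FDSS kinetic reading; agonist 54-4 at EC80 (4 uM final) then added.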
Menin-MLL FL inh – menin-MLL binding inhibition, fluorescein peptide; Fluorescence polarization, fluorescein-MLL peptide displacement from menin; FP activity change, % at 61.4 µM; 290,000 tested, under 10 active; inconclusive = falling polarisation curve, or a change in total fluorescence; inactive = total fluorescence flat and polarisation flat or rising; no compound was filed as active; the % refers to the polarisation; negative = inhibition;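 further: % of control where 0% means no effect; inhibitors lower the polarisation; unlabelled MLL peptide was the positive control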
ClpP mod – qHTS Assay for Activators of ClpP; ATP-dependent Clp protease proteolytic subunit (Bacillus subtilis (strain 168)), P80244; purified B. subtilis ClpP, FRET peptide cleavage, 20 min; Potency, µM (highest dose often 57.5 µM), inactives show top-dose activity change, negative = active; hit rate 1.9% among 340,000; AID 651965, 2013; active = well fitted falling curve with a large enough effect; inconclusive = small, poorly fitted or top-dose-only effect; inactive = no such curve, though single readings can be large or run the other way; further: potency means the concentration at half of the fitted maximal effect; the source files actives as falling curves though it sought activators and does not explain the sign; nearly all actives have a fitted effect of over 65% in size; many hits overshoot -100%
Target sequence (P80244 whole entry, looked up): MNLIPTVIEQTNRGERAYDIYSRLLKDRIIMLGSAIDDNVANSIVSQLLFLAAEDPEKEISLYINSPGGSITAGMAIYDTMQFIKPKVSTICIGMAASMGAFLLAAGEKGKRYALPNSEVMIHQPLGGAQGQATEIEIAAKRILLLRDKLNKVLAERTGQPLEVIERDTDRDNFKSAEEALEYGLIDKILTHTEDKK
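FRET quenching reversal measured ClpP activation: 10 microg/mL B. subtilis ClpP at pH 8 with the FRET-FV decapeptide, read at 430 nm after 320 nm excitation. The 20-min minus 0-min signal was scaled between DMSO/no-enzyme wells and ADEP (5.8 microM final).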
Numbers without * were called inactive; ? = inconclusive; nt = no result given; & = joins results of further samples; [ ] = another dose, or the depositor's remark.

SMILES	PINK1 expr mod	Sfp PPTase inh	TRPV1 potentiator	TRPML1 ag	TRPML1 blocker	Menin-MLL FL inh	ClpP mod
O=C(Nc1ccc(Br)cc1F)c1cc2nc(-c3ccco3)cc(C(F)(F)Cl)n2n1	0.3%	nt	nt	-0.9	0	nt	-3.2%
COc1cccc(CNC(=O)CN2CCCN(Cc3ccccc3)S2(=O)=O)c1	0.5%	nt	nt	-0.9	8	nt	-0.8%
Cc1ccc(N2C(=O)N(CC(=O)NC(N)=O)C(=O)C2C)cc1 (stereo not drawn)	0.6%	14%	-2	-0.1	9	-0.9	nt
O=C(NNc1ccccc1F)c1sccc1Cl	3.2%	nt	nt	-0.5	nt	nt	-0.7%
COc1ccc(CCNC(=O)c2cnc3sc(N4CCCCC4)nn3c2=O)cc1OC	1.2%	nt	nt	-1.4	16	nt	4.7%
Cn1c(NNC(=O)c2c(F)cccc2F)cc(=O)n(C)c1=O	-0.5%	0%	23	-0.4	1	0.4	-8.4%
Cc1ccccc1C(=O)Nc1sc(C)c(C)c1C(=O)c1ccccc1	2.6%	32µM*	-9	0.7	17	5.0	-2.8%
Cc1c(C(=O)C(=O)NCC2CCCO2)c2ccccc2n1C (stereo not drawn)	1.4%	19%	6	-0.1	13	?	0.7%
Cc1ccc(CNc2ncnc3c2nnn3C)cc1	20%	nt	nt	1.2	-10	nt	-2.9%
C=CCNC(=S)N1CCN(Cc2ccccc2)CC1	0.6%	-16%	-16	0.9	16	-0.5	1.3%
CCc1ccccc1NC(=O)c1ccc(CN2CCC(Cc3ccccc3)CC2)cc1	0.1%	-20%	?	-1.0	-1	11	0.6%
Cc1sc(NC(=O)Cc2ccc3c(c2)OCO3)nc1-c1ccc2c(c1)CCN2C(=O)c1ccc(F)cc1	-0.5%	-10%	-17	-0.1	5	-0.7	-11%
COc1ccc(S(=O)(=O)Nc2cccc(-c3ccc4nncn4n3)c2)cc1	7.2%	nt	?	2.5	39	nt	0.5%
COc1cc(O)c(CC=C(C)C)c(O)c1C(=O)CCc1ccc(O)cc1	26%	18%	11	nt	nt	3.6	-3.4%
CC(C)CC(NC(=O)C(NC(=O)C1OC2OC(C)(C)OC2C2OC(C)(C)OC12)C(C)C)C(=O)O (stereo not drawn)	0.1%	3%	5	0.9	13	-0.1	nt
O=C(c1ccc(S(=O)(=O)N2CCCCC2)cc1)N1CCCC(C(F)(F)F)C1 (stereo not drawn)	-0.7%	nt	-4	0.2	17	nt	1.0%
Cn1c(=O)c2c(nc(CN3CCN(Cc4ccccc4)CC3)n2Cc2ccc(F)cc2)n(C)c1=O	-0.4%	9%	-4	-0.2	-7	4.9	-0.4%
COc1ccccc1NC(c1ccc(Cl)cc1)c1nnc(-c2cccc(F)c2)o1 (stereo not drawn)	0.7%	nt	nt	0.3	-6	nt	-3.6%
CSc1ncccc1C(=O)OCC(=O)NC1CCCc2ccccc21 (stereo not drawn)	3.3%	nt	nt	2.1	20	nt	2.3%
O=C(Cn1[nH]c(=O)c2ccccc2c1=O)OCC(=O)c1ccc(F)cc1	1.4%	nt	4	0.1	13	nt	nt
Cc1ccc(C)c(C(=O)CN2C(=O)NC3(CCCCCCC3)C2=O)c1	3.1%	17%	5	0.5	0	-0.9	2.4%
COc1cc2[nH]c(=S)nc(NCCC(C)C)c2cc1OC	3.3%	7%	-5	1.6	-17	-1.8	-1.3%
CN(C)S(=O)(=O)c1cccc(N=C2SCCN2Cc2ccccc2)c1	1.5%	-1%	-3	2.4	59	2.5	nt
COc1ccccc1CN1CCNC(=O)C1CC(=O)NCCCN1CCOCC1 (stereo not drawn)	2.1%	nt	nt	-0.1	7	nt	-5.6%
O=C(O)C1CCN(C(=O)c2ccco2)CC1	-1.4%	-11%	28	-0.2	8	-2.8	nt

Other structures
SMILES	PINK1 expr mod	Sfp PPTase inh	TRPV1 potentiator	TRPML1 ag	TRPML1 blocker	Menin-MLL FL inh	ClpP mod
OC(CNCC(c1ccco1)N1CCCCC1)c1ccccc1 (stereo not drawn)	0.0%	?	-7	-0.1	-2	2.1	-1.2%
O=C(c1ccco1)N1CCN(c2ccccc2F)CC1	3.7%	-9%	15	-0.8	-1	5.5	0.4%
COCC1CCN(C(=O)C2CCC(=O)N(Cc3ccc(Cl)cc3)C2)CC1 (stereo not drawn)	0.9%	27%	9	-0.3	4	nt	-1.7%
CN(C)CCCNC(=O)C[C@H]1C[C@H](C(=O)N2CCOCC2)[C@@]2(CCC3CCCC3)c3[nH]c4cc(CCC(=O)N(C)C)ccc4c3CCN2C1=O	0.8%	nt	nt	0.0	-11	nt	-1.8%
Cc1cc(C)c(S(=O)(=O)NCc2cccs2)cc1C	-0.1%	6%	-5	8.2	18	-2.9	1.0%
Oc1ccc(-c2nnc(SCC3CCCCC3)o2)cc1	1.2%	8%	-12	0.0	-10	0.9	-2.5%
O=C(O)c1ccc(NS(=O)(=O)c2ccc3c(c2)OCCO3)cc1	-0.5%	-7%	-1	0.2	-3	1.5	-0.9%
Cc1ccc(OC(C)C(=O)Nc2cccc(S(=O)(=O)N3CCCCCC3)c2)cc1 (stereo not drawn)	2.9%	nt	nt	-0.9	10	nt	0.2%
C[C@H]1CN=C(N(C)C)N1CC1CCC(C(C)(C)C)CC1 (stereo partly drawn)	1.4%	nt	4	0.0	19	nt	1.1%
O=C(COC(=O)c1cnc(Cl)c(Cl)c1)NCc1cccs1	5.5%	19%	-16	-0.3	-2	1.2	nt
COC(=O)c1ccc(C23CC4(C2)[C@H](CN(Cc2cccnc2)[C@@H]4c2ccccc2)C3c2ccc(Cl)nc2)cc1 (stereo partly drawn)	0.0%	?	-29	-0.2	3	-2.5&4.4	-1.5%
Cc1ccc(-n2nnc3c(=O)n(CC(=O)OCc4ccccc4)cnc32)cc1	-0.3%	6%	22	-0.5	-4	3.4	-2.9%
Cc1noc(C)c1C(=O)N1CCC1(C)C(=O)NS(=O)(=O)c1cccc(OC(F)F)c1 (stereo not drawn)	1.3%	nt	nt	-0.3	nt	nt	0.3%
CC(C)(C)C(=O)Nc1cc(NC(=O)C(C)(C)C)cc(C(=O)NNC(=O)c2ccncc2)c1	1.3%	15%	-5	0.7	6	-0.1	1.2%
Cc1ccc(SCc2cn3c(C)cc(C)nc3n2)cc1	0.3%	14%	0	0.8	6	2.9	nt
COc1cc(NC(=O)CCC2CCCC2)cc(-n2cnnn2)c1	3.3%	5%	-20	-1.2	48	2.8	?
Cc1ccc(C(=O)c2cn(Cc3ccccc3)c3nc(C)ccc3c2=O)cc1	1.0%	nt	nt	-0.9	8	nt	6.8%
CCSc1ccc(C(=O)Nc2ccc(Br)cn2)cc1[N+](=O)[O-]	3.4%	4%	?	2.1	-6	1.5	1.7%
O=C1c2ccccc2C(=O)N1OCc1ccc(Cl)cc1	15%	-5%	-5	-0.4	18	-0.3	0.6%
CC(C)Cn1c(SCC(=O)O)nnc1-c1cccc(S(=O)(=O)N2CCOCC2)c1	0.8%	nt	nt	-0.5	1	nt	-0.3%
COc1ccc(OC)c(NC(=O)COC(=O)CC2CCCCC2)c1	5.6%	nt	nt	3.6	7	nt	-5.4%
COCCNC(=O)C(c1ccc(C)cc1)N(CCOC)C(=O)CCC(=O)Nc1nccs1 (stereo not drawn)	-0.6%	13%	4	0.1	15	-9.9	nt
CCOc1ccccc1NC1=C(OC)C(=O)C(Nc2ccccc2OCC)=C(OC)C1=O	9.3%	nt	nt	3.2	22	nt	1.6%
O=C(NCc1ccco1)/C(=C/c1ccccc1F)NC(=O)c1ccccc1	4.5%	5%	-4	-0.1	-10	-5.9	-8.5%
N#CC(C(=O)Nc1ccc(Cl)cc1)=C1Nc2ccccc2N1	6.6%	4%	?	-0.8	-3	0.8	-4.1%

The results go on:
SMILES	PINK1 expr mod	Sfp PPTase inh	TRPV1 potentiator	TRPML1 ag	TRPML1 blocker	Menin-MLL FL inh	ClpP mod
Cc1ccc[n+](-c2nc3ccccc3nc2C(=C=[N-])C#N)c1	1.2%&0.2%	-17%	-9&-10	-0.1&1.8	-16&1	?	-0.1%
COC(=O)CCC(=O)N1CCC(CCC(=O)NCc2ccc(F)cc2)CC1	0.9%	11%	8	0.7	4	2.7	0.4%
Cc1noc(C)c1C(=O)OCC(=O)c1c(N)n(CC(C)C)c(=O)n(C)c1=O	-2.8%	-7%	-2	-0.7	8	1.8	0.1%
Cc1ccc(N2C(=O)NC(NS(=O)(=O)c3ccc(Cl)cc3)(C(F)(F)F)C2=O)cc1C (stereo not drawn)	-1.0%	nt	nt	2.0	1	nt	-2.8%
Cc1cc(NC(=O)CSc2ncc(CO)n2Cc2ccc(F)cc2)no1	-0.9%	14%	7	-0.8	0	nt	0.4%
O=C(/C=C/c1ccc(Cl)cc1)N1CCN(c2ccccc2[N+](=O)[O-])CC1	-3.3%	-11%	-27	-0.5	-1	-0.6	-1.0%
O=C(Nc1ccon1)c1ccc(S(=O)(=O)N2CCCCCC2)cc1	13%	1%	-30	1.2	10	2.4	0.7%
O=c1oc([C@@H](O)c2ccccc2)cc2ccccc12	-0.3%	nt	nt	3.5	2	nt	-2.3%
CNC(=O)/C(C#N)=C/c1c(N2CCCCCC2)nc2ccccn2c1=O	-2.3%	10%	-7	1.0	7	?	3.3%
O=C(NCc1ccccn1)c1ccc(OC2CCN(Cc3ccccc3O)CC2)cc1	-2.8%	4%	28	2.0	46	nt	-1.3%
Cc1ccc(OCC(=O)N(C)CCc2ccccn2)cc1	-2.3%[38.3 µM]	-8%	4	0.4	1	3.4	-0.4%
COc1ccc(-n2c(C)cc(C=O)c2C)cc1Cl	-1.0%	1%	19	0.4	28	-0.8	0.1%
c1ccn(-c2ncnc3sc4c(c23)CCCC4)c1	0.3%	-5%	-8	0.6	-1	4.9	-0.9%
O=c1[nH]c(=S)[nH]c2c1C(c1cc([N+](=O)[O-])c(N3CCOCC3)cc1N1CCOCC1)O2 (stereo not drawn)	0.3%	2%	-3	0.0	-7	-7.7	nt
Fc1ccc(CNC(=S)NCc2cccc(Cl)c2)cc1	?	-20%	-10	0.6	-14	nt	-2.7%
